# Assay outcomes: PubChem, ICCB-Longwood Screening Facility, Harvard Medical School
# Anaer choline gr: blocks anaerobic gram-negative growth on choline | hit rate 0.2% among 55,000 | calls only | Gram-negative bacterium anaerobic choline minimal medium, absorbance growth; hits give low values; many inactives read as strong as hits in the columns shown;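 active means growth z-score on choline under -2 at 7 or 20 h with little or no fall on glycerol, limits in tiers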;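 further: stock transfer was 300 nL into about 50 µL; the organism is E. coli; final concentration not given here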
# Anaer choline gr early: second read-out of Anaer choline gr, no call of its own (marks repeat the call); z-score; measured here: choline growth z-score, timepoint 1;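 score of optical density at 7 h as mean of two plates; lower means less growth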
# Numbers without * were called inactive; i = inactive; & = joins results of further samples.
SMILES,Anaer choline gr,Anaer choline gr early
COc1ccc(CNC(=O)c2cc(-c3ccccc3F)nc3n[nH]c(-c4cccc(OC)c4)c23)cc1,i,-0.08
CN(N=O)C(=O)N[C@H]1C(O)O[C@H](CO)[C@@H](O)[C@@H]1O (stereo partly specified),i,-1.3
CCCCNC(=O)COc1ccc(-c2noc(-c3ccccc3)n2)cc1OC,i,0.1
CC(C(=O)N1CCN(c2ccccn2)CC1)C1CCN(C(=O)c2cc3cc(Cl)ccc3[nH]2)CC1 (stereo unspecified),i,-0.8
Cn1c(=O)cc(SCC(=O)Nc2ccc(S(N)(=O)=O)cc2)c2ccccc21,i,1
Cc1cc2nc(COc3ccccc3NC(=O)CCC3CCCC3)cc(=O)n2o1,i,0.96
O=C(CSc1nc2c(cnn2-c2ccc(Cl)cc2)c(=O)[nH]1)NCC1CCCO1 (stereo unspecified),i,-0.12
O=C(c1cccc(N2C(=O)CCS2(=O)=O)c1)N1CCCCC1,i,0.22
COC(=O)c1ccccc1NC(=O)c1nn(-c2ccccc2C)c(=O)cc1OC,i,-1.3
CCCN(C)S(=O)(=O)c1cc(-c2nnc(C)o2)co1,i,0.38
COc1cccc(N2CCN(C(=O)CCc3nc(-c4ccc(N5CCCC5)cc4)no3)CC2)c1,i,-0.24
O=C(Cc1csc(NC(=O)Nc2cccc(Cl)c2)n1)Nc1cccc(Cl)c1,i,2
COCCNC(=O)c1ccc2c(=O)n(-c3ccc(OC)cc3)c(SC(C)C(=O)c3ccc(C)c(C)c3)nc2c1 (stereo unspecified),i,0.36
Cc1nc2c(C(=O)NCCCN3CCOCC3)cnn2c(C)c1Cc1ccccc1Cl,i,-0.01
Cc1ccc(NC(=O)Nc2nnc(SCC(=O)N3CCOCC3)s2)cc1,i,0.18
Cc1cc(C)c2c(=O)[nH]n(C3CCCC3)c2n1,i,0.09
CCCc1cc(Sc2ccc(NS(=O)(=O)c3cc(OC)ccc3OC)cc2)n2ncnc2n1,i,-0.53
CC(C)n1c(SCc2nc(-c3ccc(Cl)cc3)no2)nc2c(-c3ccccc3)cn(C)c2c1=O,i,0.56
CN(C)c1ncc(C(=O)O)cc1NS(=O)(=O)c1ccccc1,i,0.3
COc1cc(C2CC(=O)C3=C(C2)Nc2onc(C)c2C3c2ccccc2C)ccc1O (stereo unspecified),i,0.22
Cc1nc2c(C)nn(-c3ccccc3)c2s1,i,-0.85
CCOc1ccccc1N1CCN(C(=O)C2CCN(c3ncnc4c3oc3ccccc34)CC2)CC1,i,-0.74
O=S(=O)(c1cccn2c(SCc3ccc(F)cc3)nnc12)N1CCc2ccccc2C1,i,0.63
Cc1ccc(S(=O)(=O)N(Cc2cccc(F)c2)c2nc3nc(C)cc(C)n3n2)cc1,i,0.59
COC(=O)c1sccc1NC(=O)CN1CCCN(Cc2cccc(F)c2)S1(=O)=O,i,0.55
COc1ccc(Br)cc1CNC(=O)CCC(=O)N1CCSc2ncccc21,i,0.27
COC(=O)c1c(-c2ccc(F)cc2)noc1NCCN1CCCC1,i,-1.1
COc1ccc(-c2nnc(-c3nc(NC4CCS(=O)(=O)C4)c4ccccc4n3)o2)cc1 (stereo unspecified),i,0.94
O=C(O)c1cc(-c2ccccc2)nc2ccccc12,i,0.73&-0.09
O=C(CSc1nc2ncccc2n2cccc12)NCc1ccc(Cl)cc1,i,1
c1ccc(OCc2nnc3sc(-c4ccncc4)nn23)cc1,i,0.09
CCC(=O)N1CCCC1c1nc2ccccc2n1CCCCOc1ccccc1 (stereo unspecified),i,-0.42
CC(=O)Nc1cccc(-c2nc(-c3ccc4c(c3)[nH]c(=O)n4C)no2)c1C,i,-1.2
CC(=O)Nc1ccc(NC(=O)c2cc(-c3ccncc3)n[nH]2)cc1,i,0.09
Cc1ccccc1CN1C(=O)c2ccccc2S(=O)c2ccc(C(=O)N3CC(C)CC(C)C3)cc21 (stereo unspecified),i,0.29
Cc1noc2c1C(c1ccc(Cl)cc1)C1=C(CC(c3ccccc3)CC1=O)N2 (stereo unspecified),i,0.25
CC(C)(C)Nc1ncnc2c1cnn2-c1cccc(Cl)c1,i,-0.69
Cc1cccc(NS(=O)(=O)c2c(C)sc(C)c2-c2cc(C(F)(F)F)on2)c1,i,2.2
O=C(C1CCN(c2cncnc2N2CCOCC2)CC1)N1CCCCC1,i,-0.47
CC(C)NC(=O)c1cc2n(n1)CCCC2,i,-1.3
O=c1c(-c2ccccc2)c(N2CCCCC2)c1=O,i,-0.8
CCNC(=O)N1CCCN(S(C)(=O)=O)CC1,i,1
Cn1c(SCCOc2ccc(Cl)cc2)nnc1-c1ccc2c(c1)OCCCO2,i,-0.6
COc1ccc(CCNC(=O)C(C)C2Sc3ccccc3N(Cc3ccccc3F)C2=O)cc1OC (stereo unspecified),i,0
Cn1c(=O)c(N2CCN(C(=O)c3cc4ccccc4o3)CC2)nc2ccccc21,i,-0.06
CC1CCN(C(=O)c2cc(-c3ccccc3)n[nH]2)CC1,i,-0.79
CCOC(=O)C1CCCN(S(=O)(=O)c2cc(-c3ccc(=O)[nH]n3)ccc2CC)C1 (stereo unspecified),i,-0.55
Cc1nn(C)c(C)c1CCN(C)C(=O)Nc1ccc(Br)cc1F,i,-2.3

# Reformatted bar-delimited: part of the list above
compound | Anaer choline gr | Anaer choline gr early
O=C(C1CCN(c2cncnc2N2CCOCC2)CC1)N1CCCCC1 | i | -0.47
CC(C)NC(=O)c1cc2n(n1)CCCC2 | i | -1.3
O=c1c(-c2ccccc2)c(N2CCCCC2)c1=O | i | -0.8
CCNC(=O)N1CCCN(S(C)(=O)=O)CC1 | i | 1
Cn1c(SCCOc2ccc(Cl)cc2)nnc1-c1ccc2c(c1)OCCCO2 | i | -0.6
COc1ccc(CCNC(=O)C(C)C2Sc3ccccc3N(Cc3ccccc3F)C2=O)cc1OC (stereo unspecified) | i | 0
Cn1c(=O)c(N2CCN(C(=O)c3cc4ccccc4o3)CC2)nc2ccccc21 | i | -0.06

# Other entries
SMILES,Anaer choline gr,Anaer choline gr early
O=C(Nc1ccc2c(c1)OCO2)c1ccc(Nc2cc(-c3ccccc3)ncn2)cc1,i,-0.11
CCCCSc1nnc2c(n1)OC(c1cccc(OC)c1OC)N(C(C)=O)c1ccccc1-2 (stereo unspecified),i,-0.33
CC(C)(C)C(=O)Nc1cc(Cl)ccc1OCc1cc(=O)n2ccsc2n1,i,1.1
O=C(N[C@@H](Cc1ccccc1)C(=O)CCl)OCc1ccccc1,i,-0.19
CCN(CC)CCCNC(=O)c1ccc2c(c1)nc1n2CCOC1,i,-2.3
CCCC(=O)N1CCN(c2nc3cc(Br)ccc3n3cccc23)CC1,i,-1.8
Cc1ccsc1C(=O)NCc1ccc(S(=O)(=O)N2CCC(C)CC2)s1,i,0.68
Cc1ccc(CNC(=O)Cn2nnc(C(=O)Nc3cc(C)ccc3C)c2N)cc1,i,-2.1
c1ccc(-c2noc(CCc3nnc4ccc(N5CCN(c6ccccc6)CC5)nn34)n2)cc1,i,0.63
Cn1c(=O)n(C)c2cc(Sc3ccccc3Cl)c(NS(=O)(=O)c3cnc[nH]3)cc21,i,0.96
Cc1ccccc1-c1cc2n(C)c(C)c(CCC(=O)NCCN(C)C)c(=O)n2n1,i,-0.44
COc1ccccc1CNC(=O)c1ccc(NC(=O)c2nnc(COc3ccc(Cl)cc3)s2)cc1,i,0.68
O=C(NCCc1nc(-c2ccccc2)n[nH]1)Nc1ccccc1Cl,i,-0.22
O=C(CSc1ccc(Cl)cc1)N1CCN(c2cc(=O)n3nc(-c4ccccc4)sc3n2)CC1,i,0.62
CN(C)c1nc2ncn3c(=O)n(CC(=O)Nc4ccc(F)c(Cl)c4)nc3c2s1,i,-0.8
CC(C)c1ccc(NC(=O)c2c(O)c3ccccc3[nH]c2=O)cc1,i,-0.13
CCOc1ccc(-c2nc(-c3ccc4c(c3)[nH]c(=O)c(=O)n4C(C)C)no2)cc1,i,-0.04
O=c1[nH]cccc1-c1nc(-c2ccc3c(c2)OCO3)no1,i,0.15
Cc1nnc(NC(=O)CSc2ccc3nnc(-c4ccc(Cl)cc4)n3n2)s1,i,-0.15
CS(=O)(=O)N1CCCc2cc(C(=O)NCC3CCCO3)ccc21 (stereo unspecified),i,-1.4
CCCN1CCN(C(=O)c2cc3sc(C)c(CN4CCCCC4)c3[nH]2)CC1,i,-2.4
Cc1ccc(-c2noc3ncnc(NC4CCCCC4)c23)cc1,i,-0.91
O=C(O)c1cc(NS(=O)(=O)c2ccc3c(c2)CCCC3)cnc1N1CCC(N2CCCCC2)CC1,i,0.22
Cc1cc(C)n(CCC(=O)N2CCN(c3ccc(=O)n(-c4ccc(C)c(C)c4)n3)CC2)n1,i,0.37
CC1CCN(c2nc3c(c(=O)n(C)c(=O)n3C)n2Cc2ccccc2F)CC1,i,-0.75
O=C(Nc1ccccc1)c1cnc2ccccn2c1=O,i,0.28
COc1ccc(NS(=O)(=O)c2ccc3c(c2)CCCC(=O)N3)c(OC)c1,i,-0.43
O=C(NC(=NCc1ccncc1)Nc1cccc(F)c1)c1ccc2c(c1)OCO2,i,-0.15
COCCOc1cc2nc[nH]c(=O)c2cc1OCCOC,i,0.8
Cc1nc2c(c(NCCCN3CCOCC3)n1)CCC2,i,-0.62
CCCCNC(=O)C(C)N1C(=O)CCCc2ccccc21 (stereo unspecified),i,0.27
CN1CCN(c2ncc3c(n2)CC(c2ccc(Cl)cc2)CC3=O)CC1 (stereo unspecified),i,-2
COc1ccc(/C=C\c2onc(C)c2S(=O)(=O)N2CCC(C(=O)N3CC(C)CC(C)C3)CC2)cc1 (stereo unspecified),i,1.6
CC(C)c1cnc2c(c1SC1CCCC1)c(=O)n(C)c(=O)n2C,i,-0.81
Cc1cc2n(n1)CCCN2C(=O)CCC(=O)NC1CCCC1,i,-0.1
Cc1cc(C)n(-c2nc3c(c(=O)n2CC(=O)N2CCCc4ccccc42)CCCC3)n1,i,0.52
Cc1noc(C)c1C1CCCN1C(=O)c1cc(-c2ccc(Br)cc2)on1 (stereo unspecified),i,0.54
O=c1n(CCOc2ccc(F)cc2)nc2c(S(=O)(=O)N3CCCCC3)cccn12,i,0.09
O=S(=O)(NCCc1n[nH]c(Cc2cccc(F)c2)n1)c1cccc2nsnc12,i,-1.6
Cc1cc(C)c(S(=O)(=O)N2CCc3cc4ccc(C)cc4nc32)c(C)c1,i,-1.6
Cn1cc(S(=O)(=O)c2ccccc2)c(=O)c2cc(F)c(N3CCCCC3)cc21,i,2.5
CCn1c(=O)c2sccc2n2c(SCc3ccc(Br)cc3)nnc12,i,0.53
COc1ccc(-c2cc(C(=O)N3CCOCC3)[nH]n2)cc1,i,0.07
O=c1cc(CN2CCCC2)nc2nc(-c3ccccc3)[nH]n12,i,0.15
O=C(NCc1cccnc1)c1cccc(NC(=O)N2CCCCc3ccccc32)c1,i,-1.1
CN(C)c1nc2ncn3c(=O)n(CC(=O)Nc4cccc(Cl)c4F)nc3c2s1,i,-0.37
CCc1noc2nc(C)nc(NCCOC)c12,i,-2.2
CCC(C)NS(=O)(=O)c1cc(C(=O)OC)n(C)c1C (stereo unspecified),i,0.42
Cc1ccc(C(=O)C(C)n2nc3n(C(C)C)c(=O)c4ccc(C(=O)NCC(C)C)cc4n3c2=O)cc1C (stereo unspecified),i,1.9
C=CCNC(=O)c1cnc2sc(C)c(C)n2c1=O,i,-1.3
CNC(=O)c1cccn1-c1nnc(N2CCCCC2)s1,i,-0.14
Cc1ccccc1CSc1nnc2n(C)c(=O)c3sccc3n12,i,-0.41
Cc1cc(-c2csc(S(=O)(=O)Nc3ccccc3)c2)on1,i,0.21
CCc1ccc(CNC(=O)c2nc(N3CCOCC3)c3ccccc3n2)cc1,i,0.45
Cc1noc2nc(CCC(=O)NC3CCCCC3)nc(N3CCOCC3)c12,i,-1.4
CCc1ccc(-c2[nH]nc3c2C(c2ccccc2)C2=C(CC(C)(C)CC2=O)N3)cc1 (stereo unspecified),i,1
Cc1nc(-c2cc(NC(=O)c3ccc(Br)cc3)c(C)s2)no1,i,-0.71
Fc1cccc(-c2nn3c(CSc4ccccc4)nnc3s2)c1,i,0.46
CN(C(=O)C1CCCN(c2ncc(-c3ccccc3)cn2)C1)C1CCCCC1 (stereo unspecified),i,-0.15
O=C(C1CCN(c2cncnc2N2CCCCC2)CC1)N1CCCCC1,i,0.89
# New compounds follow.
SMILES,Anaer choline gr,Anaer choline gr early
Cc1onc(-c2cccnc2)c1C(=O)NCc1ccccc1,i,-0.56
CCN1CCCC1CNC(=O)c1c(O)c(Cl)cc(Cl)c1OC (stereo unspecified),i,0.47
COc1ccc(-c2cnn3c(C)cc(C)nc23)cc1S(=O)(=O)NCC(C)C,i,-0.26
COc1ccc(NS(=O)(=O)c2c(C)sc(C)c2-c2cc(C(F)(F)F)on2)cc1Cl,i,0.62
Cc1ccc(CNC(=O)N2CCC3(CC2)CC(=O)c2ccccc2O3)cc1,i,0.54
CCOC(=O)c1c(C)oc2ncnc(N3CCN(C)CC3)c12,i,-1.1
Cn1c(=O)c2c(ncn2CC(=O)Nc2ccc(Cl)cc2)n(C)c1=O,i,-0.58
CCOc1ccc(C(=O)NCCc2sc3nc(-c4ccc(Cl)cc4)nn3c2C)cc1,i,-0.28

# Six entries drawn at random from the list so far, as already listed:
SMILES,Anaer choline gr,Anaer choline gr early
O=c1c(-c2ccccc2)c(N2CCCCC2)c1=O,i,-0.8
O=S(=O)(c1cccn2c(SCc3ccc(F)cc3)nnc12)N1CCc2ccccc2C1,i,0.63
O=c1cc(CN2CCCC2)nc2nc(-c3ccccc3)[nH]n12,i,0.15
CN(C)c1nc2ncn3c(=O)n(CC(=O)Nc4ccc(F)c(Cl)c4)nc3c2s1,i,-0.8
O=C(Nc1ccc2c(c1)OCO2)c1ccc(Nc2cc(-c3ccccc3)ncn2)cc1,i,-0.11
Cc1ccsc1C(=O)NCc1ccc(S(=O)(=O)N2CCC(C)CC2)s1,i,0.68

# Only part of the results is shown; the hit share may differ from the screen's.
